TRPML1 agonist = human mucolipin-1 channel agonism; Q9GZU1; TRPML1-expressing cells, Ca2+ dye fluorescence, FDSS; host cell line not named in the record; reference of the full effect not given here; activation, % (test concentration not listed); hit rate 0.12% among 410,000; in the data active = activation above about 50%; inconclusive = about 30% to 50%; inactive = below about 30%; also: 0% is about no effect; the text of the record puts the active cut at 80%
Target sequence (Q9GZU1 whole entry, looked up): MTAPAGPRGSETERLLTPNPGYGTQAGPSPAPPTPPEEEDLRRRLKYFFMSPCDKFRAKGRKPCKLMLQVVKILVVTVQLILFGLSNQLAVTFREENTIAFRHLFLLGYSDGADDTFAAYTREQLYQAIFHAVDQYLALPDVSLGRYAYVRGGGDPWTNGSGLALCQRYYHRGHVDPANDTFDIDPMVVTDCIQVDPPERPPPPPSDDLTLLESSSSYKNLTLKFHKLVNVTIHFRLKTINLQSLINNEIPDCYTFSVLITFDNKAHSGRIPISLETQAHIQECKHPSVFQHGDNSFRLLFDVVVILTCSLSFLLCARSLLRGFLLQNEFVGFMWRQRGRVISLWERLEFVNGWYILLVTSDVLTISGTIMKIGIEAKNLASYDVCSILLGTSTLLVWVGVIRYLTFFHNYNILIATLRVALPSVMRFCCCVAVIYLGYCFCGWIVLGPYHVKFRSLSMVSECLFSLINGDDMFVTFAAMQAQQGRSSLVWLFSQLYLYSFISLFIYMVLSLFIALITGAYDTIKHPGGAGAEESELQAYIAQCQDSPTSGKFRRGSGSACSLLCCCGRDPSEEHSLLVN
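In this qHTS format, compounds were pin-transferred onto Ca8-dye-loaded TRPML1-DL cells induced with Tet overnight, and intracellular Ca2+ fluorescence was recorded kinetically for 110 s after a 10 s baseline. A subsequent 4uM final 54-4 (EC80) addition followed by a second 110 s read served as the antagonist phase.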
D2 potentiator = potentiates the human D2 dopamine receptor allosterically; P14416; DiscoveRx D2 beta-arrestin cells, luminescence, 90 min; 100% = 57 uM dopamine signal; potentiation, % (no concentration beside the values); hit rate 0.23% among 360,000; AID 624464; active = potentiation of 50% or more; inconclusive = 30% to 50%; inactive = 30% or less;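 also: compound concentration not given in the record; tested on top of an EC20 dose of dopamine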
Target sequence (P14416 whole entry, looked up): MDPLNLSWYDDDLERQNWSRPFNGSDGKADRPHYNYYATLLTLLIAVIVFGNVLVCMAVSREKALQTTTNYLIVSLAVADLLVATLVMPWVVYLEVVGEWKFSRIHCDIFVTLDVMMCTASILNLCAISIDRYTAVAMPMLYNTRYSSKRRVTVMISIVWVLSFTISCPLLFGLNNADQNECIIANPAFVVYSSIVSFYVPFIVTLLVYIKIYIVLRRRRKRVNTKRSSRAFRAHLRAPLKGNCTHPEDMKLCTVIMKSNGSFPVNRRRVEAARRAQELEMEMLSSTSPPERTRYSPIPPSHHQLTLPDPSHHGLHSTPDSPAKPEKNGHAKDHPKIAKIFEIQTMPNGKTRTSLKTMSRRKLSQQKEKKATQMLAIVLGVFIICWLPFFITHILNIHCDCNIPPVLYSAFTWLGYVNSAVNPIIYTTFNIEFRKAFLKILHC
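PathHunter D2 cells, attached overnight at 37 deg C, received compound in DMSO plus dopamine at EC20 (50 nM final) for 90 min at 37 deg C. Beta-arrestin recruitment was read as luminescence after 1 h with detection reagent at ambient temperature.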
D2 agonist = human D2 receptor agonism in beta-arrestin assay; P14416; DiscoveRx PathHunter D2 beta-arrestin, luminescence, 90 min; 100% = 57 uM dopamine signal; activation, % (test concentration not listed); hit rate 0.084% among 360,000; in the data active = activation above about 40%; inconclusive = about 15% to 40%; inactive = below about 15%; also: compound concentration not given in the record; the text of the record calls up to 30% inactive
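DiscoveRx PathHunter D2 beta-arrestin cells (2,100/well) attached overnight, then compound-stimulated 90 min at 37 C in HBSS/10 mM HEPES/0.1% Tween-20 buffer; beta-galactosidase complementation read by luminescence after 1 h at ambient temperature. Dopamine 57 uM final (EC100) as control.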
TRPML1 blocker = inhibitors of human TRPML1 channel; TRPML1-inducible cells, Ca2+ dye fluorescence, FDSS; hits give low values; inhibition of EC80 agonist-evoked calcium signal; activity change, negative = inhibition, % (no concentration beside the values); hit rate 0.02% among 390,000; AID 624415; in the data active means activity change below about -50%; inconclusive means about -30% to -50%; inactive means above about -30%;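 also: stimulus is agonist 54-4 at its EC80 concentration; % is scaled to controls: 0 for no effect and ±100 for the full control effect; compound concentration not given in the record; the text of the record puts the active cut at -80%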
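Tet-induced TRPML1-DL cells loaded with Ca8 no-wash calcium dye were read kinetically on FDSS. Compound addition was followed by EC80 agonist 54-4 (4 uM final); inhibition was read over 110 s.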
PINK1 modulator = PINK1 expression modulation | PINK1 immunofluorescence, high-content cytometry, 24 h | Potency, µM (doses to about 76.6 µM), inactives show at the highest dose activation (PINK1 increase), usual class: activators | hit rate 0.2% among 410,000 | AID 624263; active = well fitted activation curve with a large enough effect; inconclusive = small, poorly fitted or top-dose-only effect; inactive = flat fitted curve, though single readings scatter; cell line not stated here;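 also: potency is read from the fitted curve at half-maximal effect; % of control where 0% means no effect; nearly all actives have a fitted effect of over 65% in size; a mitochondrial uncoupler was the plate control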
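Compound titrations (5 concentrations, 24 h) on a stable cell line; DMSO and CCCP controls. Endpoint: fixed-cell PINK1 immunofluorescence with mitochondrial, cell and nuclear markers, scanned by microplate cytometer.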
Six1-Eya2 inh = Six1/Eya2 interaction inhibition | Q15475+O00167 | AlphaScreen GST-Six1/His-Eya2 binding, biochemical; hits give low values; control for the full effect not named in the record | activity change, % (no concentration beside the values) | hit rate 0.56% among 360,000 | AID 651725; in the data active = activity change below about -65%; inconclusive = about -30% to -65%; inactive = above about -30%; also: % is scaled to controls: 0 for no effect and ±100 for the full control effect; compound concentration not given in the record
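AlphaScreen with GST-Six1 and His-Eya2 (5X mix: 250 nM and 500 nM), glutathione donor and nickel acceptor beads; buffer 50 mM Tris pH 8.0, 300 mM NaCl, 1 mM TCEP; 1 h at 37 C in the dark.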
* = called active by the depositor; ? = inconclusive; · = no result given; [ ] = remark or other dose. Outcome played no part in choosing rows; any-hit rate near 1%.

Every second line gives: TRPML1 agonist	D2 potentiator	D2 agonist	TRPML1 blocker	PINK1 modulator	Six1-Eya2 inh
- O=C(CCN1C(=O)/C(=C/c2ccc(Cl)cc2)SC1=S)Nc1cccc(C(=O)O)c1
    -0.1	-5	-3.7	2	0.6%	4
- COc1ccc2c(-c3cc4ccc(OCc5ccc(F)cc5)cc4oc3=O)cc(=O)oc2c1
    -0.7	23	-0.3	-15	-1.6%	-7
- Cc1ccc(-n2ncc3c2CCCC3NC(=O)c2cnccn2)cc1C (stereo unspecified)
    0.5	-19	-6.0	-11	?	-1
- CCC(c1nnc(SCC(=O)Nc2ccc(C(C)=O)cc2)n1C1CCCCC1)N(C)C (stereo unspecified)
    -1.0	-8	2.3	17	1.2%	-2
- CCN(CC(=O)NCc1cccs1)C(=O)c1cccc(S(=O)(=O)N2CCc3ccccc32)c1
    -0.3	-3	1.7	-12	2.5%	3
- COC(=O)C/C(O)=C(/N=Nc1cccc(C(F)(F)F)c1)C(=O)OC
    0.4	6	-3.7	-17	-2.7%	57
- COc1ccc(-c2ccc(C(=O)O)o2)c([N+](=O)[O-])c1
    -0.8	-2	4.2	9	1.2%	0
- CC(=O)Nc1sc2c(c1C#N)CC(C)(C)NC2(C)C
    -0.9	-6	-1.1	1	-0.8%	2
- COc1cccc(C(=O)C2CCCN(C(=O)c3cccc(C#CC(C)(C)O)c3)C2)c1 (stereo unspecified)
    -0.2	-10	3.8	24	0.9%	1
- Cc1ccc2nsnc2c1NC(=O)c1ccc(-c2cc(Cl)ccc2Cl)o1
    0.0	-4	-2.7	32	9.8%	-1
- O=C(CN1C(=O)NC2(CCCC2)C1=O)Nc1ccc(C(F)(F)F)cc1
    0.1	-3	-0.8	-6	0.6%	5
- Cc1ccc(CN2CCCn3nc(C(=O)NCCc4cccc(C)c4)cc3C2=O)cc1
    6.5	·	·	-4	-1.6%	·
- O=C(Cn1nnc2ccccc21)NCc1ccccc1
    -0.9	-11	-4.8	-12	-1.5%	27
- CCN(Cc1ccccc1)C(=O)c1cc(S(=O)(=O)N2CCOCC2)cn1C
    0.0	-3	-5.9	-3	0.9%	5
- COc1cc(Cl)c(C)cc1NC(=O)c1cnc2c(-c3cccc(C)c3)c(C)nn2c1C
    1.0	·	·	0	0.0%	·
- CCC(Sc1nc2ncccc2[nH]1)C(=O)Nc1ccccc1F (stereo unspecified)
    0.9	·	·	5	1.0%	·
- Cc1c(C(=O)Nc2ccc(F)c(F)c2)oc2ccc(S(=O)(=O)N(C)C3CCCCC3)cc12
    1.7	·	·	-5	2.9%	·
- COC(=O)c1sccc1NC(=O)c1cc2c(s1)CCCC2
    0.7	15	1.9	11	22%	18
- CCCCNC(=O)Cn1c(-c2ccc(OC)cc2)noc1=O
    0.1	-5	-0.1	-3	-4.5%[38.3 µM]	1
- O=C(NCc1ccc(F)cc1)N1CCN(C(=O)c2ccccc2)CC1
    -0.7	-1	0.3	-1	1.8%	2
- C1CC2CN(c3nc4nonc4nc3N3CCSCC3)CCN2C1 (stereo unspecified)
    2.0	9	12	-7	3.1%	-11
- CN(C)c1ccc(/C=N\Nc2nc(-c3ccccc3)cc(=O)[nH]2)cc1
    1.1	-2	-0.8	-14	6.9%	-22
- CC(C)NC(=O)c1ccc(NC(=O)CC2SC(N3CCCCC3)=NC2=O)cc1 (stereo unspecified)
    -0.3	-2	-1.2	-1	1.7%	-2
- CCOC(=O)c1cnc2c(OC)cccc2c1N1CC(C)CC(C)C1 (stereo unspecified)
    1.5	-6	-2.3	25	1.1%	0
- COc1ccc(C2=NN(c3ccccc3)C(c3cccs3)C2)cc1 (stereo unspecified)
    1.6	-1	-5.1	-15	7.7%	56
- CCCn1nnc(NC(=O)C(c2ccccc2)c2ccccc2)n1
    -0.8	7	-1.3	-3	5.8%	4
- COc1ccc(C(C)=O)cc1Cn1c(C)c(C(=O)NC2CC2)sc1=O
    -0.3	-13	-4.7	·	0.5%	2
- Cc1ccc(C)c(S(=O)(=O)c2c(C)cc(C)nc2Cl)c1
    3.0	-7	-8.6	30	0.0%	2
- CN=Cc1nc(-c2ccccc2)oc1O
    -0.6	3	-4.3	4	5.9%	-15
- CN(CC(=O)NNC(=O)c1cccnc1)S(=O)(=O)c1cc(Cl)ccc1Cl
    -0.7	0	-2.8	-3	1.9%	5

Complete entries from above. Screens in order: TRPML1 agonist, D2 potentiator, D2 agonist, TRPML1 blocker, PINK1 modulator, Six1-Eya2 inh
Profile of O=C(CCN1C(=O)/C(=C/c2ccc(Cl)cc2)SC1=S)Nc1cccc(C(=O)O)c1 = -0.1, -5, -3.7, 2, 0.6%, 4
Profile of Cc1ccc(CN2CCCn3nc(C(=O)NCCc4cccc(C)c4)cc3C2=O)cc1 = 6.5, ·, ·, -4, -1.6%, ·

Next section.
Every second line gives: TRPML1 agonist	D2 potentiator	D2 agonist	TRPML1 blocker	PINK1 modulator	Six1-Eya2 inh
- COCC(C)NS(=O)(=O)c1ccc(NC(=O)C(Cc2ccccc2)NC(N)=O)cc1 (stereo unspecified)
    -0.5	-15	-1.7	-3	-0.8%	2
- COc1ccc([C@@H]2Sc3ccccc3NC(=O)[C@@H]2O)cc1
    -0.4	-20	-4.2	7	1.4%	1
- Cc1cccc(-c2noc(CN(C(=O)c3ccc(Br)o3)C(C)C)n2)c1
    2.0	-9	3.1	2	4.4%	-12
- COc1cc(CNc2ccc3[nH]c(=O)[nH]c3c2)ccc1OCc1ccc(C)cc1
    1.5	-1	9.1	27	14%	-7
- CCCc1cc(=O)oc2cc(OCC(=O)NCc3ccccn3)ccc12
    0.8	-5	-2.1	-6	1.3%	5
- COc1cccc(NC(=O)Cc2ccc(NC(=O)N3CCCCc4ccccc43)cc2)c1
    0.6	·	·	33	0.3%	·
- COC(=O)c1cn(-c2ccccc2)nc1-c1ccc(OC)c(OC)c1
    4.2	-8	-3.1	2	-1.4%	0
- COCCCNC(=S)Nc1cccc(SC)c1
    0.8	-10	1.6	48	3.5%	10
- CCCCN(C(=O)c1ccc(Cl)cc1)C1CC2CCC(C1)N2C (stereo unspecified)
    -0.3	-11	-4.8	7	-0.5%	8
- COc1ccc(CCc2cc(OC)cc(=O)o2)cc1
    -0.4	0	-3.2	33	0.1%	2
- COc1ccc(CCNC(=O)CSc2ccccn2)cc1OC
    -0.6	-6	-5.0	-9	0.9%	16
- Cn1nc(C(F)(F)F)c(-c2ccccc2)c1NC(=O)c1nccnc1C(=O)O
    0.6	-7	-4.2	?	1.0%	-9
- Cc1ccc(OCCSc2ncccn2)c(C)c1
    1.8	-16	-1.5	12	4.6%	19
- CCCCc1c(O)nc(SCC(=O)Nc2ccc3c(c2)CCC3)[nH]c1=O
    0.1	-5	-0.5	3	-3.2%	3
- CN(c1cccc(Cl)c1)S(=O)(=O)c1cccc(C(=O)Nc2ccc3c(c2)CCC3)c1
    1.1	-21	-1.8	66	-0.6%	-3
- CC1CCCN(C(=O)COC(=O)CSc2ccc(C(N)=O)cc2[N+](=O)[O-])C1 (stereo unspecified)
    0.7	3	1.2	4	-0.8%	-4
- COc1ccc(-c2csc3ncnc(Oc4ccc5c(C)cc(=O)oc5c4)c23)cc1
    -0.4	-28	-6.3	-8	-1.2%	-4
- O=P(O)(O)c1cc(-c2ccccc2)oc1-c1ccccc1
    -0.7	-7	-3.9	-9	-0.4%	8
- Cc1cc(NC(=O)c2cccs2)ncc1NC(=O)C(C)(C)C
    0.5	-1	-2.4	-2	-0.4%	4
- Cc1nnc(Nc2ccc(O)cc2)[nH]c1=O
    5.9	-4	8.4	17	-0.7%	0
- COc1cc(/C=N/Nc2nc(C)cc(=O)[nH]2)ccc1OC(=O)c1cccnc1
    -0.2	1	-2.6	9	3.5%	-6
- Cc1cc(C(=O)O)ccc1[N+](=O)[O-]
    0.6	-9	-6.7	3	-1.1%	1
- COc1ccc(Cn2c(CCC(=O)Nc3cccc(Cl)c3)nc3cccnc32)cc1
    1.3	·	·	-5	7.6%	·
- COc1cc(C(=O)O[C@H]2CC(C)=CC[C@@]3(C)CC[C@@](O)(C(C)C)[C@H]23)ccc1O
    0.4	-1	7.1	2	-0.7%	-14
- CCn1c(SCC(=O)Nc2nccs2)nnc1-c1ccco1
    -0.5	0	-3.1	-4	0.6%	1
- COc1cccc(NC(=O)COc2ncnc3sc(C)c(C)c23)c1
    -1.3	1	-0.1	-4	-1.2%	10
- CCc1ccc(-n2c(O)cnc2Nc2nc(C)cc(C)n2)cc1
    -0.4	-5	-5.4	16	-1.5%	6
- CN1CCN(C(=O)CN2C(=O)CC(C)(C)S(=O)(=O)c3ccccc32)CC1
    0.9	-5	-1.3	2	-2.1%[38.3 µM]	6
- CC(C)(C)c1ccc(OCCCC(=O)NNC(=O)c2ccccc2O)cc1
    0.8	-14	-0.3	27	3.8%	-13
- COc1cccc(CNC(=O)C2CCN(C(=O)c3sccc3-n3cccc3)CC2)c1
    0.8	·	·	-10	0.6%	·
- O=C(CCSCc1cccc(F)c1)NCc1ccccc1
    2.6	·	·	11	4.2%	·
- C/C(=N\NC(=O)c1c[nH]c2ccccc12)c1ccc2c(c1)OCO2
    -0.1	-11	2.8	-6	-0.4%	-9
- Cc1ccc(NS(=O)(=O)c2ccc3c(c2)oc(=O)n3C)cc1F
    0.9	-4	-2.9	-2	2.5%	4
- C#C[C@]1(OC(C)=O)CCC2C3CCC4=CC(=O)CC[C@@H]4C3CC[C@@]21C (stereo partly specified)
    1.6	-2	-2.8	-3	3.1%	-2
- Cc1ccccc1C(=O)Nc1c(-c2cccs2)c(=O)c2ccccc2n1C
    0.4	-3	-1.9	?	6.3%	-3
- Cc1ccc(S(=O)(=O)N2CCc3cc(C(=O)Nc4c(C)cccc4C(C)C)ccc32)cc1
    0.2	·	·	3	-0.1%	·
- O=C(c1ccco1)N1CCN(Cc2cc(=O)c(OCc3cccc(F)c3)co2)CC1
    0.5	-4	2.8	14	1.8%	4
- Cn1c(=O)cc(SCC(=O)NCc2cccnc2)c2ccccc21
    -0.6	-15	-2.8	-2	-0.1%	-10
- Cc1cc(C)c(S(=O)(=O)NCC(=O)O)cc1C
    0.9	-11	-0.9	6	?	4
- CCCOCc1cc(CN2CCN(c3ccccc3OC)CC2)c(O)c2ncccc12
    3.2	·	·	6	3.2%	·
- Nc1c(N2CCCCC2)c(=O)[nH]c(=O)n1-c1ccccc1
    -0.4	-2	0.0	5	6.4%[38.3 µM]	0
- CCc1ccc(Oc2coc3cc(OC(=O)c4cc5ccccc5oc4=O)ccc3c2=O)cc1
    0.7	-7	3.6	-2	-2.5%	-6
- O=C1C(CSCc2ccccc2)NC(=S)N1c1ccccc1 (stereo unspecified)
    0.5	-5	-3.4	0	?	1
- COc1ccc(/C=C/C(=O)Nc2cccc(S(=O)(=O)NC3=NCCCCC3)c2)c(OC)c1
    1.6	-1	4.7	-5	2.6%	?
- COc1cc2c(cc1OC)CN(C(=O)c1cccc([N+](=O)[O-])c1)CC2
    -0.2	-1	1.2	-5	0.8%	-11

High-throughput results from PubChem BioAssay.
